Bioassay records: PubChem BioAssay, National Center for Advancing Translational Sciences (NCATS)
N370S GC mod = N370S glucocerebrosidase modulation, Gaucher chaperone candidate; N370S GC spleen homogenate, 4MU-glucoside fluorescence; Potency, µM (doses to about 59.4 µM), inactives show top-dose activity change, negative = inhibition, most hits filed as inhibitors; 330,000 compounds, 0.092% hits; AID 2101;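 note: 0% = full enzyme activity and -100% = no enzyme basal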
FEN1 inhibitor = human FEN1 inhibition. P39748. Recombinant FEN1 flap cleavage, fluorescence, 15 min. Potency, µM (doses to about 114 µM), inactives show top-dose activity change, negative = inhibition, usual class: inhibitors. 390,000 compounds, 0.35% hits. AID 588795; note: nearly all actives have a fitted effect of over 65% in size
Target sequence (P39748 whole entry, looked up): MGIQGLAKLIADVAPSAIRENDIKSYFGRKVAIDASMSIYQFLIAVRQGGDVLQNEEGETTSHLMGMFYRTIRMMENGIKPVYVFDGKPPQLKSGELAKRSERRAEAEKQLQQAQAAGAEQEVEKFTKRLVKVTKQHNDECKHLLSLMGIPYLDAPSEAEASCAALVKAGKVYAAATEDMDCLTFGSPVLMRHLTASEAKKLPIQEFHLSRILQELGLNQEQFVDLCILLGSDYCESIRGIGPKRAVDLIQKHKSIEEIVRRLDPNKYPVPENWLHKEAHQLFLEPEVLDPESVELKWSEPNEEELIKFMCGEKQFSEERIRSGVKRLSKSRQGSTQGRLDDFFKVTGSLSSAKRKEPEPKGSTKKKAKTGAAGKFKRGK
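Concentration–response screening of FEN1 (10 nM): 15 min compound preincubation at room temperature, reaction started with 50 nM substrate and read at 0 and 15 min. Corrected, normalized data were fitted by a four-parameter Hill equation.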
Numbers without * were called inactive; ? = inconclusive; nt = no result given; & = joins results of further samples; [ ] = remark or other dose. Calls come from the whole dose curve; as a rule, active = well fitted curve in the direction sought with a large enough effect; inconclusive = small, poorly fitted or top-dose-only effect, or another doubt; inactive = no such curve, though single readings can be large; an effect the other way counts as inactive or inconclusive. Unless noted, % is set by controls: 0 for no effect and ±100 for the full control effect; potency is the fitted concentration of half-maximal effect. These rows are one share of the data; most or all hits stand in other tables.

SMILES	N370S GC mod	FEN1 inhibitor
CCOc1ccc(C2C3=C(CCCC3=O)Nc3ccc4ncccc4c32)cc1 (stereo not given)	-13%	0%
CCn1ncc(C2=NOC(C(=O)Nc3ccc(C)cc3)C2)c1C (stereo not given)	3%	-2%
CCCCN(C(=O)CCC(=O)OCC(=O)NCc1ccccc1)c1c(N)n(CCC)c(=O)[nH]c1=O	nt	2%
Cc1ccc(/C=C/C(=O)N2CCN(c3ncccn3)CC2)o1	5%	4%
CS(=O)(=O)N(CC(=O)N1CCCC1)c1ccc(OCc2ccccc2)cc1	1%	-5%
CCN(CC)C(=O)CN1C(=O)NC2(CCc3ccccc3C2)C1=O (stereo not given)	-6%	-5%
Cc1onc(-c2ccccc2)c1C(=O)OCC(=O)NC(=O)c1ccccc1	-2%	-17%
C#CCOCCOCCOCCNc1nc(N2CCN(C(=O)[C@H](CCCCN)n3cc([C@@H](N)C(C)CC)nn3)CC2)nc(N2CCN(C(=O)[C@H](Cc3ccc(O)cc3)n3cc([C@@H](N)CC(C)C)nn3)CC2)n1 (stereo not given in full)	-4%	-1%
COc1ccc(S(=O)(=O)Nc2ccc(-c3ccc(N4CCCC4)nn3)cc2)cc1F	nt	2%
COc1ccccc1C(=O)NCC(=O)NCCSc1ccc(Br)cc1	nt	-4%
Clc1ccc(-c2nn3c(C4COc5ccccc5O4)nnc3s2)cc1 (stereo not given)	26%	10%
O=C(CSc1ncnc2ccccc12)c1cccs1	0%	-1%
COc1ccccc1NC(=O)CC12CC3CC(CC(Br)(C3)C1)C2	5%	8%
COc1ccc(OCc2nnc3n2N=C(c2ccccc2)C(CC(=O)O)S3)cc1 (stereo not given)	-3%	?
Cc1cc2[nH]c(=O)c(=O)[nH]c2cc1S(=O)(=O)N1CCN(c2ccccc2F)CC1	-60%	6%&4%
Cc1ccc(N2C(=O)C3C(C(=O)c4ccccc4)=NN(c4ccccc4)C3C2=O)cc1 (stereo not given)	13%	0%
COc1ccc(NCCc2ccccn2)cc1	-5%	3%
COc1ccc(OCC(=O)OCC(=O)Nc2cc(S(=O)(=O)N3CCOCC3)ccc2Cl)cc1	nt	10%
Nc1cccnc1Oc1ccccc1F	-2%	1%
C#CCOCCOCCOCCNc1nc(N2CCN(C(=O)[C@H](CCC(=O)O)n3cc([C@@H](N)[C@H](C)CC)nn3)CC2)nc(N2CCN(C(=O)[C@H](CCC(=O)O)n3cc([C@@H](N)CC(N)=O)nn3)CC2)n1	nt	-13%
CCSc1nc2c(c(-c3ccc(C)o3)c1C#N)CCCC2	27%	7%
COc1cc(Cl)c(C)cc1NC(=O)CN1C(=O)C2CCCCC2C1=O (stereo not given)	nt	-2%
COC(=O)c1cn(Nc2ncc(C(F)(F)F)cc2Cl)c(=O)c2ccccc12	8%	4%
Cc1ccc(C2=NN=C(NC(=O)CSc3nc(C)cc(C)n3)SC2)cc1	4%	nt
COc1cccc(-c2c(C#N)c(SC)nc3cc(C)nn23)c1	-7%	-8%
COc1ccc(CCn2c(C)cc(C(=O)CN3C(=O)C(=O)N(C4CCCC4)C3=O)c2C)cc1OC	0%	-7%
Cc1nc(SCN2C(=O)c3ccccc3C2=O)n[nH]1	1%	1%
CCOC(=O)NC(NS(=O)(=O)c1ccccc1)(C(=O)OCC)C(F)(F)F (stereo not given)	6%	-5%
C=C(C)C1CC=C(C)/C(=N/NC(=O)c2cccs2)C1 (stereo not given)	20%	2%
CC(O)CN1CC(O)=C(c2nc3ccccc3s2)C1=N (stereo not given)	19%	13%
CCOC(=O)C1=C(c2ccccc2)NC(=S)NC1C (stereo not given)	-24%	5%
COc1ccc(NC(=O)CN2C(=O)COc3ccc(S(=O)(=O)N4CCOCC4)cc32)cc1	4%	-7%&-5%
CCN(C[C@H]1N[C@@](Cc2ccccc2)(C(=O)OC)[C@H]2C(=O)N(C)C(=O)[C@@H]12)C(=O)Nc1ccc(Cl)cc1	nt	16%
CCOC(=O)C1(CCOc2ccccc2)CCN(Cc2ccc(NC(C)=O)cc2)CC1	-10%	-12%
CCOc1ccc(NC(=O)c2cnsn2)cc1	-2%	-8%
CCN(CC)NC(=O)Nc1ccccc1	9%	-3%
Cc1cccc2cc(C#N)c(SCC(=O)NNC(=O)Cc3ccccc3)nc12	-4%	-1%
COC(=O)CSCC(=O)Nc1nnc(-c2cccc(C)c2)s1	-2%	3%
Cc1ccc(-c2[nH]c(=S)[nH]c(=O)c2C#N)cc1	-26%	12%
CCOC(=O)c1[nH]c(C)c(CCC(=O)NCc2ccc(C)cc2)c1C	nt	16%
Cc1occc1-c1nnc(SCCNCCO)o1	-8%	3%
Cc1c(C(=O)N2CCCCC2)sc(NC(=O)c2ccco2)c1C#N	-2%	-2%
CC1CC(C)CN(CCCNC(=O)c2cc3c(=O)[nH]c4ccccc4c3n2C)C1 (stereo not given)	-3%	-20%
Cc1noc(C)c1S(=O)(=O)N(C)C[C@H]1Oc2c(NC(=O)C3CCCCC3)cccc2C(=O)N([C@H](C)CO)C[C@@H]1C	nt	-5%
Cc1ccc(OCCCC(=O)Nc2ccc3c(c2)OCCO3)cc1	nt	-2%
COc1ccc(NC(=O)Cn2c(SCc3cc(C)ccc3C)nc3ccncc32)c(OC)c1OC	nt	-3%
COc1ccccc1CNC(=O)C1CCN(S(C)(=O)=O)CC1	-6%	3%
CCOc1ccc(NS(=O)(=O)c2ccc(OC)c(NC(=O)c3ccc4c(c3)OCCO4)c2)cc1	5%	1%
COc1cc(-c2[nH]ncc2CN(C)Cc2cc(C)[nH]n2)cc(OC)c1OC	-2%	3%
COc1ccc(CCNC(=O)CN2C(=O)COc3ccccc32)cc1OC	nt	35%
COc1ccc(S(=O)(=O)NC(C)(C)C)cc1-c1nnc2c3ccccc3c(C)nn12	10%	6%&5%
COc1ccc(S(=O)(=O)N2CCOC23CCN(S(=O)(=O)c2cc(F)ccc2F)CC3)cc1	-15%	0%
Cc1ccc(-c2noc(CSc3nnc(C)n3-c3ccc(C)cc3)n2)cc1	nt	6%
CCc1cccc(OCC(=O)Nc2ccc(C)c(S(=O)(=O)N3CCCCCC3)c2)c1	-4%	-10%
COc1ccc(C(=O)c2oc3ccccc3c2N)cc1	?	-19%
CC1CCN(S(=O)(=O)c2ccc(C(=O)NCc3ccc4c(c3)OCO4)cc2)CC1	5%	2%
O=C(O)c1c(C(=O)N2N=C3/C(=C/c4ccccc4)CCCC3C2c2ccccc2)cccc1[N+](=O)[O-] (stereo not given)	2%	1%
O=C(NCc1ccccc1)C1CCC(=O)N(CCCN2CCCC2=O)C1 (stereo not given)	-15%	-12%
CCCOC(=O)CSC1=C(C#N)C(c2ccccc2Cl)CC(=O)N1 (stereo not given)	1%	-49%
OC(COc1ccc2c(c1)OCO2)CN1CCCCC1 (stereo not given)	4%	11%

Other records follow:
SMILES	N370S GC mod	FEN1 inhibitor
Cc1cc(C)nc(Nc2ncc(O)n2-c2ccccc2)n1	11%	6%
CCCCN(C)S(=O)(=O)c1ccc(C(=O)Nc2ccc(-c3nc4ccc(C)cc4s3)cc2)cc1	nt	-3%
CCN(CC)c1ccc(/C=C2\CCC(/C=N/NC(=O)c3ccc(=O)n(C)c3)=C2N2CCOCC2)cc1	-3%	-3%
COc1ccccc1NC(=O)CN1CCSc2ccccc21	8%	4%
COc1ccc(/C=C/c2nc3ccccc3c(=O)o2)cc1	-5%	6%
COC(=O)c1c(NC(=O)CCCC(=O)O)sc(C)c1C	0%	0%
COCCNC(=O)Nc1ccc2nc(-c3ccco3)c(-c3ccco3)nc2c1	-8%	11µM*
O=C(O/N=C1\CCS(=O)(=O)c2sccc21)C1CC1	4%	-14%
O=C(CCN1C(=O)/C(=C/c2cccc(Br)c2)SC1=S)NNC(=O)c1cccnc1	-2%	1%
Cc1nc(C(=O)N2CCCC(Nc3ccc(C)c(C)c3)C2)cs1 (stereo not given)	0%	1%
Fc1ccc(N2N=C(c3cccs3)CC2c2ccco2)c(F)c1 (stereo not given)	?	-16%
O=C(CN1CCOCC1)NN1CC(=O)N(c2ccc(Cl)cc2)CC1=O	-2%	6%
CCc1nnc(NS(=O)(=O)c2ccc(NS(=O)(=O)c3ccc(NC(C)=O)cc3)cc2)s1	9%[12.8 µM]	nt
CCc1ccc(N(C(=O)CNC(=O)c2ccco2)C(C(=O)NCC2CCCO2)c2ccccc2)cc1 (stereo not given)	-3%	-11%
CC1(C)CC(=O)c2cc(OCC(=O)O)ccc2O1	18%	-11%
CS(=O)(=O)N(CC(=O)N1CCCCC1)c1cccc(F)c1	7%	-3%
O=C(Nc1ccc(Cl)c(Cl)c1)N1CC=CCC1	7%	16%
NC(=NCCC[C@H](N)C(=O)O)NO	7%	nt
COc1ccc(N(CC(=O)Nc2ccc3c(c2)OCO3)S(=O)(=O)c2ccccc2)cc1	6%	-5%
COc1ccccc1N1C(=O)Cc2ccccc2C1=O	-10%	2%
COc1cc(/C=N/n2c(-c3cc(C)[nH]n3)n[nH]c2=S)cc(OC)c1OC	4%	-5%
CCc1c(C)nc2c(OC)cccc2c1SCCC(=O)O	10%	-9%
Fc1ccc(N2CCN(c3ncnc4onc(-c5ccc(Cl)cc5)c34)CC2)cc1	nt	12%
O=C(COc1cc(Cl)c(Cl)cc1Cl)Nc1ccncc1	?	0%
CCOC(=O)N/N=C/c1c(C)nn(-c2cccc(C(F)(F)F)c2)c1Cl	-3%	-11%
Cn1c(CNC(=O)CNC(=O)c2ccccc2)cc(=O)n(C)c1=O	-21%	20%
CC1CCN(C(=O)C2CCN(S(=O)(=O)c3cccc4nonc34)CC2)CC1	10%	-4%
CC(C)CCNC(=O)c1ccc2c(c1)N(C)C(=O)c1ccccc1S2	2%	-3%&-3%
COc1ccc(O)c(CNn2c(-c3ccc(Br)cc3)nc3ccccc3c2=O)c1	13%	0%
COc1ccc(/C=N/NC(=S)Nc2ccccc2)cc1	7%	1%
Clc1ccc(CN2CCN(/N=C/c3cccnc3)CC2)cc1	-6%	-7%
CCC1=C(OC(=O)N(CC)CC)N2C(=O)OC(=NCC3CC3)[C@]2(C)[C@H]2C1=CC[C@H]1C(=O)N(C)C(=O)[C@H]12	-3%&-1%	-6%
COc1ccc(OC)c(Nc2nc3ccccc3nc2-n2nc(C)cc2C)c1	nt	-19%
Cc1cc(Cl)ccc1OCCCC(N)=O	6%	-7%
C/C(=C/CCC(C)C1CCC2(C)C3CCC4C(C)(C)C(=O)CCC4(C)C3=CCC12C)C(=O)O (stereo not given)	3%	nt
CC(C)c1ccc(NC(=O)CCNS(=O)(=O)c2ccc3[nH]c(=O)oc3c2)cc1	-17%	-8%
COc1ccc(C)cc1NC(=O)CN1CCN(C/C=C/c2ccccc2)CC1	?	-9%
Cc1cc(C)c2c(n1)SCC(=O)N2CC(=O)Nc1ccc(C)c(C)c1	-22%	10%&-6%
COc1cccc(-n2c(=O)[nH]cc(C(=O)Nc3ccc(NC(C)=O)cc3)c2=O)c1	0%	-2%
CCn1c(-c2ccc(OC)c(OC)c2)n[nH]c1=S	-7%	1%
Cc1ccc(C(=O)Cn2cnc3ccccc3c2=O)cc1	7%	8%
N#Cc1c(/N=C/N2CCOCC2)sc2c1CCCCC2	nt	15%
COc1ccc(C2CC(=O)N3C(=C2C#N)SCC3(O)c2ccccc2)cc1 (stereo not given)	-12%	-7%
CCOc1ccc(N2CC(C(=O)NC3CCSC3=O)CC2=O)cc1 (stereo not given)	-16%	-12%
Fc1ccc([C@H]2CCNC[C@H]2COc2ccc3c(c2)OCO3)cc1	-18%	nt
CN1CCN(c2c(F)cc3c(=O)c(C(=O)O)cn4c3c2OCN4C)CC1	-5%	3%

Molecules shown so far containing a Cl atom, in the order listed:
SMILES	N370S GC mod	FEN1 inhibitor
Clc1ccc(-c2nn3c(C4COc5ccccc5O4)nnc3s2)cc1 (stereo not given)	26%	10%
COc1ccc(OCC(=O)OCC(=O)Nc2cc(S(=O)(=O)N3CCOCC3)ccc2Cl)cc1	nt	10%
COc1cc(Cl)c(C)cc1NC(=O)CN1C(=O)C2CCCCC2C1=O (stereo not given)	nt	-2%
COC(=O)c1cn(Nc2ncc(C(F)(F)F)cc2Cl)c(=O)c2ccccc12	8%	4%
CCN(C[C@H]1N[C@@](Cc2ccccc2)(C(=O)OC)[C@H]2C(=O)N(C)C(=O)[C@@H]12)C(=O)Nc1ccc(Cl)cc1	nt	16%
CCCOC(=O)CSC1=C(C#N)C(c2ccccc2Cl)CC(=O)N1 (stereo not given)	1%	-49%
O=C(CN1CCOCC1)NN1CC(=O)N(c2ccc(Cl)cc2)CC1=O	-2%	6%
O=C(Nc1ccc(Cl)c(Cl)c1)N1CC=CCC1	7%	16%
Fc1ccc(N2CCN(c3ncnc4onc(-c5ccc(Cl)cc5)c34)CC2)cc1	nt	12%
O=C(COc1cc(Cl)c(Cl)cc1Cl)Nc1ccncc1	?	0%
CCOC(=O)N/N=C/c1c(C)nn(-c2cccc(C(F)(F)F)c2)c1Cl	-3%	-11%
Clc1ccc(CN2CCN(/N=C/c3cccnc3)CC2)cc1	-6%	-7%
Cc1cc(Cl)ccc1OCCCC(N)=O	6%	-7%
